# Bioassay records deposited in PubChem by several laboratories.
# Mtb H37Rv = M. tuberculosis H37Rv growth inhibitors, H37Rv strain (AID 1626) | M. tuberculosis H37Rv growth inhibition; higher % means a stronger effect | one-dose inhibition, % at 10 µM; IC50 in µM for titrated hits | 220,000 tested, 0.95% active;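 active = confirmed in a dose series; inconclusive = inhibition above 80% but not taken into the dose series; inactive = below 80% or under 30% at every dose of the series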;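 also: bacteria incubated seven days before Alamar blue readout; 0% = bacteria only wells and 100% = bacteria with antibiotic wells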
# RecA splice inh = inhibitors of M. tuberculosis RecA intein splicing. 290,000 tested, 0.75% active. P9WHJ3. cell-free RecA intein splicing, fluorescence. inhibition, %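 (about 9 µM by stock and volumes)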; in the data active = inhibition above about 30%; inconclusive = no clear call, values can overlap the other calls;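 also: 0% = vehicle wells and 100% = reference inhibitor control wells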
# Target sequence (P9WHJ3 whole entry, looked up, canonical isoform): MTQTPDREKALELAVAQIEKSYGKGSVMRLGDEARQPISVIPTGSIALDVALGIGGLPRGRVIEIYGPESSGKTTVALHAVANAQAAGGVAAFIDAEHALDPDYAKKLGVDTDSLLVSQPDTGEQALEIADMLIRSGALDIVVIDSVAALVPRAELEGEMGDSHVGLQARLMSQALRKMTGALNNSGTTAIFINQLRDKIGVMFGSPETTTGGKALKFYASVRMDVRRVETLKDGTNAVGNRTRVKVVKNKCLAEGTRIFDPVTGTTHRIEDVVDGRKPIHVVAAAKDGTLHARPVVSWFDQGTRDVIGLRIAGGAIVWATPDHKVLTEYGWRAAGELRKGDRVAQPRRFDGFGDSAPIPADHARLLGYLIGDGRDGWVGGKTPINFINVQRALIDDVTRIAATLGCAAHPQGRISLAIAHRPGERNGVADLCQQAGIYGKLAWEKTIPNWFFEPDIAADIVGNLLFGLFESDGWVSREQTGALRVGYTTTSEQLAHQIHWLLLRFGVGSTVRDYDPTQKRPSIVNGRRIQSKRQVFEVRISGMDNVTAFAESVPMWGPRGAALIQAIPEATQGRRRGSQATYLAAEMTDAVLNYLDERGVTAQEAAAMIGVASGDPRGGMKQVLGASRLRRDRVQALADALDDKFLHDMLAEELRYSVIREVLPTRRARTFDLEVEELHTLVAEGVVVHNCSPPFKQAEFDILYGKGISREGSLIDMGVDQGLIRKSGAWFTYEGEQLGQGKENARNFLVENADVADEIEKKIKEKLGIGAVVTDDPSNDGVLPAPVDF
# Arbovirus anti = blocks arbovirus infection. arbovirus infection cell-based antiviral screen. inhibition, % at 10 µM. 200,000 tested, 0.37% active. AID 1251;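 active = inhibition from about 30%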;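 also: bluetongue infection of BSR cells; cell survival read as ATP light after 72 h; 0% = infected wells without compound and 100% = uninfected wells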
# Mtb bLac sens = beta-lactam sensitization of Mtb H37Rv | M. tuberculosis H37Rv growth with meropenem, percent inhibition; hits of this screen are not shown here | 330,000 tested, 0.27% active | inhibition, % at 25 µM;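 active = about 74% or more and at least 40 points above the plate without the antibiotic, then above 30% in a dose series; inconclusive = first-round hits that could not be retested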;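 also: growth measured after seven days incubation then overnight dye step; 0% = bacteria only wells and 100% = bacteria with antibiotic; twin plates without the antibiotic show which effects depend on it; some results filed as inactive read as strong as hits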
# YopH PTP inh = inhibitors of Yersinia enterocolitica YopH tyrosine phosphatase; fluorescence Ex485/Em525; inhibition, %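 (about 10 µM by stock and volumes)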; 140,000 tested, 0.16% active;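 active = inhibition of 50% or more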;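 also: controls were vehicle for no effect and minimum signal wells for full effect; inactives centre near -20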
# * = called active by the depositor; ? = inconclusive; / = not tested or not shown; & = joins results of further samples. This is a subset, so the mix of outcomes need not match the whole.
no.	structure	Mtb H37Rv	RecA splice inh	Arbovirus anti
1	CCOC(=O)Cc1csc(NS(=O)(=O)c2ccc(SC)cc2)n1	-9%	3.4	1
2	COc1ccc(CC(=O)N[C@@H](CCSC)C(=O)N2CCC3(CC2)NCCc2[nH]cnc23)cc1	/	-1.7	/
3	CCCCn1c(=O)[nH]c(=O)c2c1nc(-c1cccc(OC)c1)n2C	/	0.3	/
4	N#C/C(C(=O)N1CCCC1)=C1/N=C(N)c2ccccc21	-2%	-1.2	-2
5	Cc1ccc(NC(=S)NC2CC3CCCC(C2)N3Cc2cccs2)cc1 (configuration not stated)	3%	1.9	5
6	C/C(CC(C)(C)c1ccccc1)=N\NS(=O)(=O)c1ccccc1	-5%	-0.2	3
7	CCOc1ccc(CCNC(=O)COC(=O)c2ccc(S(=O)(=O)N3CCCC3)cc2)cc1OCC	/	0.8	/
8	COC(=O)c1ccc(CNC(=O)COC(=O)C2CCC(C(C)(C)C)CC2)cc1 (configuration not stated)	-3%	-0.2	-8
9	COC(=O)c1sccc1NC(=S)NCc1ccc(Cl)cc1	1%	4.6	/
10	O=C(CCn1cnnn1)Nc1ccccc1F	4%	0.1	0
11	Cc1ccc(S(=O)(=O)NCC2CCC(C(=O)O)CC2)cc1 (configuration not stated)	-2%	-1.7	5
12	CC(C)Cn1c(N)c(C(=O)COC(=O)c2ccccc2F)c(=O)n(C)c1=O	7%	-5.4	12

no.	Mtb bLac sens	YopH PTP inh
1	0	/
2	0	/
3	0	/
4	2	-18
5	7	-36
6	2	/
7	-17	/
8	-2	-20
9	27	/
10	-6	/
11	-7	15
12	-2	/

# (continued)
no.	structure	Mtb H37Rv	RecA splice inh	Arbovirus anti
13	CCOc1ccc(C(=O)C(C)OC(=O)Cn2c(C)csc2=O)cc1 (configuration not stated)	/	-2.3	/
14	Cc1ccc(C#CC[N+]2(CC#Cc3ccc(C)cc3)CCCCC2)cc1	35%	1.6	-5
15	COCCNC(=S)N/N=C/c1ccc2c(c1)OCCO2	-4%	-1.2	2
16	O=C(CCS(=O)(=O)c1ccc(Br)cc1)N1CCN(c2ccccc2)CC1	2%	/	4
17	Cc1ccc(C)c(N2CCN(C(=O)CSc3ccsc3[N+](=O)[O-])CC2)c1	8%	4.5	4
18	Cc1ccccc1OCCSc1nnc(C)n1-c1ccccc1	-3%	-3.2	14
19	S=c1[nH]nc(-c2cccs2)n1/N=C/c1cn(-c2ccccc2)nc1-c1cccs1	12%	4.1	/
20	CCCCn1c(N)c(N(CC)C(=O)CN2C(=O)NC(C)(c3ccccc3)C2=O)c(=O)[nH]c1=O (configuration not stated)	/	1.0	/
21	CS(=O)(=O)Nc1ccc(Cc2noc(-c3ccc4[nH]cc(CCN)c4c3)n2)cc1	-6%&9%	-0.3	-2
22	O=C(Nc1ccccc1C(=O)N1CCN(Cc2ccccc2)CC1)c1ccccc1	/	-1.1	/
23	COc1ccc(C(=O)c2c(C)oc3ccc(O)cc23)c(OC)c1	/	-2.0	/
24	CCOc1ccccc1CNC(=O)Cn1c(=O)oc2ccccc21	0%	1.4	5

no.	Mtb bLac sens	YopH PTP inh
13	-15	/
14	94	-11
15	-12	/
16	-5	-6
17	-7	-8
18	10	-16
19	-8	/
20	-9	/
21	-1	/
22	-6	/
23	1	/
24	3	-44

# Following part.
no.	structure	Mtb H37Rv	RecA splice inh	Arbovirus anti
25	Clc1nnc(N2CCCCC2)c2ccccc12	9%	1.6	-13
26	CCOC(=O)c1cc(C)sc1NC(=O)C1CCC1	-6%	8.7	-5
27	Cc1ccccc1OCC1Cc2c(nc(N)c(C#N)c2N)O1 (configuration not stated)	75%	/	-1
28	CN(CC(=O)Nc1ccc(F)c(F)c1F)C(=O)/C=C/c1ccc(Cl)cc1	13%	-5.0	-7
29	CCOC(=O)Cn1c(O)c(N=NC(=O)CNC(=O)Cc2ccccc2)c2ccccc21	/	0.1	/
30	O=C(Nc1nonc1NC(=O)c1cccs1)c1cccs1	6%	-1.5	23
31	COc1cc(S(=O)(=O)Nc2ccccc2C)ccc1Cl	-1%	-2.6	1
32	c1ccc(CNc2ncnc3c2oc2ccccc23)nc1	8%	-0.3	2
33	CNC(=S)N/N=C/c1ccc(OCC(=O)Nc2c(C)cc(C)cc2C)c(OC)c1	23%	-0.2	-7
34	COc1ccc(Cn2c(-c3ccc(OC)cc3)n[nH]c2=S)cc1	/	1.8	/
35	CC(C)(C)c1nnc2sc(SC/C(O)=C(\C#N)c3nc4ccccc4[nH]3)nn2c1=O	0%	9.2	1
36	COc1ccc(CC(=O)c2ccc(OC)c(OC)c2C)cc1OC	3%	1.6	5

no.	Mtb bLac sens	YopH PTP inh
25	6	/
26	5	-10
27	-5	-19
28	-3	-26
29	-1	/
30	1	/
31	-10	-61
32	2	-11
33	-6	-17
34	-5	/
35	32	-47
36	-5	-29

# (further entries)
no.	structure	Mtb H37Rv	RecA splice inh	Arbovirus anti
37	CCCCOc1ccc(C(O)(CC)CCN2CCOCC2)cc1 (configuration not stated)	10%	0.0	-7
38	CCN(CC(=O)Nc1c(F)cccc1F)C(=O)c1cccc(S(=O)(=O)N2CCN(c3ccccc3)CC2)c1	/	0.8	/
39	Cc1cccc(C(=O)N[C@H](C(=O)Nc2ccc(S(=O)(=O)NC3=NCCCCC3)cc2)C(C)C)c1	2%	-3.6	10
40	CC(C)c1cc(CNC(=O)CCc2nnc(CCCc3ccccc3)o2)on1	-2%	-2.9	-6
41	O=c1[nH]cc(NCCNc2ncc(C(F)(F)F)cc2Cl)c(=O)[nH]1	1%	-2.2	-1
42	Nc1ccccc1N=Cc1c(O)n(CCC2=CCCCC2)c(=O)[nH]c1=O	-10%	-3.3	-31
43	Cc1cccc(NC(=S)NC2CC3CCCC(C2)N3CC(C)C)c1 (configuration not stated)	-19%	7.2	2
44	NS(=O)(=O)c1ccc(CCNS(=O)(=O)c2cccc(C(=O)O)c2)cc1	8%	-2.4	/
45	CSc1ncc(Cl)c(C(=O)O)n1 (tested in a mixture with another compound)	2%	-6.4	3
46	Cc1cccnc1NC(=O)Nc1cccc2ccccc12	-8%	0.6	-13
47	CS(=O)(=O)N(Cc1nnc(-c2cccs2)o1)c1ccc(Cl)cc1F	7%	-0.9	5
48	Cc1ccc(Sc2ccc(/C=N/O)cc2[N+](=O)[O-])cc1	11%	21	-4

no.	Mtb bLac sens	YopH PTP inh
37	0	-11
38	1	/
39	-3	/
40	1	/
41	3	/
42	4	-26
43	-10	0
44	-7	/
45	2	-29
46	32	-15
47	-7	-22
48	85	6

# (further entries)
no.	structure	Mtb H37Rv	RecA splice inh	Arbovirus anti
49	COc1ccc(NC(=O)NNC(=O)COc2ccc3ccccc3c2)cc1	/	-1.8	/
50	CCC(=O)N(CCC1(C(C)C)CCOC(C)(C)C1)Cc1ccco1 (configuration not stated)	5%	0.1	3
51	COCCNC(=O)c1cccc(OC2CCN(C(C)COc3ccccc3)CC2)c1 (configuration not stated)	/	0.3	/
52	Cc1nnc(NC(=O)c2csc3c2CCCC3)s1	3%	0.2	5
53	CCOc1ccc(N(CC)S(=O)(=O)c2c(C)[nH]c(=O)[nH]c2=O)cc1	/	-2.0	/
54	Cc1nc(Cl)nc(N(C)c2ccccc2)c1[N+](=O)[O-]	14%	20	/
55	O=C(COC(=O)c1ccccc1Br)NC1CCCC1	/	-1.3	/
56	O=C(Nc1ccccc1C(=O)NCCN1CCOCC1)c1ccco1	3%	-0.4	7
57	COc1ccc(NC(=O)CSCc2cc(=O)n3ccsc3n2)cc1	/	-1.3	/
58	O=C(NN1C(=O)C2C3C=CC(C3)C2C1=O)c1ccco1 (configuration not stated)	-9%	0.6	8
59	COc1ccc(N(CC(=O)N2c3ccccc3CC2C)S(=O)(=O)c2c(C)noc2C)cc1 (configuration not stated)	0%	8.4	9
60	CCCOC(=O)CN1C(=O)c2ccc(C(=O)OCCC)cc2C1=O	-5%	-0.5	3

no.	Mtb bLac sens	YopH PTP inh
49	3	/
50	3	-9
51	5	/
52	-6	/
53	7	/
54	3	/
55	-7	/
56	?	-16
57	-6	/
58	2	-27
59	?	-34
60	-7	-52

# Continued.
no.	structure	Mtb H37Rv	RecA splice inh	Arbovirus anti
61	CCN1CCN(C(=O)c2ccc(CS(=O)(=O)Cc3ccccc3F)o2)CC1	-3%	-0.1	15
62	CCOC(=O)N1CCN(C(=O)c2cc(COc3c(F)cccc3F)on2)CC1	/	-2.7	/
63	Cc1ccc(C(c2c(C)[nH][nH]c2=O)c2c(C)[nH][nH]c2=O)cc1[N+](=O)[O-]	-2%	99*	0
64	CCOc1ccc(CCNC(=O)c2cn(C)c3ccc(S(=O)(=O)N4CCOCC4)cc3c2=O)cc1OCC	/	3.3	/
65	C=CCOC(=O)C(C#N)c1nc2ccccc2nc1N1CCN(Cc2ccc3c(c2)OCO3)CC1 (configuration not stated)	5.4µM*	0.9	-6
66	Cn1c(N)c(C(=O)COC(=O)[C@@H]2CCCN2S(=O)(=O)c2ccc(Cl)cc2)c(=O)n(C)c1=O	0%	-1.1	0
67	O=[N+]([O-])c1ccc(O)c(C=Nc2cccc3ncccc23)c1	1%	-1.8	-1
68	O=C(O)c1ccc(/C=C/c2nc3ccccc3c(=O)[nH]2)cc1	/	-0.5	/
69	COc1ccc(Cc2nnc(SCc3nc4ccccc4c(=O)[nH]3)o2)cc1	-5%	-0.2	-10
70	O=C(CNC(=O)c1ccccc1Cl)NCC(c1cccs1)N1CCOCC1 (configuration not stated)	/	-0.1	/
71	COc1ccccc1Oc1ccccc1[N+](=O)[O-]	3%	-1.7	/
72	COc1ccc(C(=O)Nc2cc(Cl)ccc2OC(=O)c2ccc(OC)cc2)cc1	-2%	0.0	17

no.	Mtb bLac sens	YopH PTP inh
61	-6	-4
62	-5	/
63	-1	-29
64	-2	/
65	94	-45
66	-1	/
67	-3	/
68	7	/
69	4	-10
70	3	/
71	6	/
72	7	-48

# Further results.
no.	structure	Mtb H37Rv	RecA splice inh	Arbovirus anti
73	Cc1ccc(SCc2noc(-c3c(C)noc3C)n2)cc1	/	7.2	/
74	N/C(=N\OC(=O)CCC1CCCC1)c1ccncc1	-6%	/	-1
75	COc1ccc(NC(=O)CN(C)C(=O)C2CC(=O)N(c3ccc4c(c3)OCCO4)C2)cc1 (configuration not stated)	/	-2.5	/
76	C/C=C/C=C/C(=O)Nc1nccs1	13%	-2.5	7
77	COc1ccc(-c2nn(CCC#N)cc2C=C(C#N)C#N)cc1	-1%	-1.6	/

no.	Mtb bLac sens	YopH PTP inh
73	-6	/
74	4	/
75	-7	/
76	2	-30
77	-4	/
